Source: PubChem (National Center for Advancing Translational Sciences (NCATS))
Cruzain inh noDet: cruzain (T. cruzi) inhibition without detergent | purified cruzain, Z-FR-AMC fluorescence, no detergent | Potency, µM, inactives show max response, negative = inhibition, usual class: inhibitors | 200,000 tested, 2.3% active | AID 1476;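 note: plate controls were enzyme without inhibitor for no effect and buffer without enzyme for full effect; nearly all actives have a fitted effect of over 40% in size; top concentration of the series not given in the record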
Target sequence (P25779 123-467 limits assumed): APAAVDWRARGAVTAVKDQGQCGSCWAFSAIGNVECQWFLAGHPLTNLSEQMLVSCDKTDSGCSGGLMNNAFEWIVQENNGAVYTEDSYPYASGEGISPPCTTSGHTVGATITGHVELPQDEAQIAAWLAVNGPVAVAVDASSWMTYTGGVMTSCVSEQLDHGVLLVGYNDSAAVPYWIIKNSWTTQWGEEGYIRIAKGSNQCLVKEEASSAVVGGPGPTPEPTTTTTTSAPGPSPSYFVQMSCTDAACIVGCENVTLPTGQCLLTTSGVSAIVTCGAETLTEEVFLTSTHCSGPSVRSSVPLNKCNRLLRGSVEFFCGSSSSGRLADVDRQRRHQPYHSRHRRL
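Purified cruzain at 1.5 nM, pre-incubated 15 min with compound at room temperature in 100 mM sodium acetate pH 5.5, 5 mM DTT, 0.00005% Triton X-100. Reaction started with 2 uM Z-FR-AMC; AMC fluorescence increase over 60 s gives rate.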
NS1 inh: inhibitors of influenza NS1 protein function; S. cerevisiae slowed by influenza A NS1, growth recovery by OD600; Potency, µM (top dose mostly 46.1 µM), inactives show at the highest dose activity, positive = more growth; 270,000 tested, 0.4% active; AID 2326; active means well fitted rising curve with a large enough effect; inconclusive means small, poorly fitted or top-dose-only effect; inactive means no such curve, though single readings can be large or run the other way; note: nearly all actives have a fitted effect of over 50% in size
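In this qHTS, NS1 from influenza A is expressed in budding yeast, where it slows growth. Cells are switched from glucose to 2% galactose medium (pH 6.0, -URA), treated with compound, and growth recovery is read at OD600.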
StopGo reporter: lowers the luciferase signal of an FMDV 2A StopGo reporter; human cells with a luciferase reporter of 2A StopGo recoding; control for the full effect not named in the record; Potency, µM (titrated, usually from 57.9 µM), without a hit: at the highest dose signal change, negative = less light; 410,000 tested, 1.2% active; AID 1159524; active = well fitted falling curve with a large enough effect; inconclusive = small, poorly fitted or top-dose-only effect; inactive = no such curve, though single readings can be large or run the other way; tested in HEK293T cells; note: % is set by controls: 0 for no effect and ±100 for the full control effect; nearly all actives have a fitted effect of over 45% in size; luciferase light after 4 h
RE007 growth inh: less growth of the S. pombe RE007 Vpr strain. S. pombe RE007 Vpr strain, BacTiter-Glo ATP luminescence, 24 h; control for the full effect not named in the record. Potency, µM (highest dose often 92.2 µM), inactives show top-dose activity change, negative = less growth. 360,000 tested, 0.21% active; active = well fitted falling curve with a large enough effect; inconclusive = small, poorly fitted or top-dose-only effect; inactive = no such curve, though single readings can be large or run the other way;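 note: % is set by controls: 0 for no effect and ±100 for the full control effect; nearly all actives have a fitted effect of over 50% in size; the assay follows cell death caused by Vpr and the record does not say whether a fall means rescue or toxicity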
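Fission yeast strain RE007, carrying one chromosomally integrated HIV-1 vpr copy, was seeded at OD 0.01 in PMG+AL medium with 23 nL pinned compound. After 24 h at 30 °C and 99% humidity, viability was read by BacTiter-Glo luminescence.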
SARS PLP yeast: blocks SARS-CoV papain-like protease in a yeast assay. 330,000 tested, 0.19% active. S. cerevisiae expressing SARS-CoV PLpro, growth rescue; control for the full effect not named in the record. Potency, µM (series often up to 32.9 µM), without a hit: at the highest dose activity, positive = growth rescue. AID 485353; active means well fitted rising curve with a large enough effect; inconclusive means small, poorly fitted or top-dose-only effect; inactive means no such curve, though single readings can be large or run the other way; note: 0% is about no effect; nearly all actives have a fitted effect of over 55% in size; growth read by luminescence after 48 h
Cruzain inh Det: blocks cruzain activity in presence of Triton detergent | P25779 | purified cruzain, Z-FR-AMC fluorescence, 0.01% Triton | Potency, µM, for inactives: max response, negative = inhibition, actives largely listed as inhibitors | 200,000 tested, 0.43% active | AID 1478;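 note: plate controls were neutral wells for no effect and buffer without enzyme for full effect; nearly all actives have a fitted effect of over 40% in size; top concentration of the series not given in the record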
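Cruzain (1.5 nM) preincubated 15 min at RT with compound in 100 mM sodium acetate pH 5.5, 5 mM DTT, 0.01% Triton X-100. Reaction started with 2 uM Z-FR-AMC; AMC fluorescence (ex 360/em 450 nm) change over 60 s gave rate.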
Lassa entry inh: inhibitors of Lassa virus binding or cell entry. Lassa virus pseudotype entry inhibition, cell reporter; control for the full effect not named in the record. Potency, µM (titrated, usually from 37.9 µM), inactives show top-dose activity change, negative = inhibition, usual class: inhibitors. 300,000 tested, 1.2% active; active means well fitted inhibition curve with a large enough effect; inconclusive means small, poorly fitted or top-dose-only effect, or effect the other way; inactive means flat fitted curve, though single readings scatter; tested in HEK293 cells; note: % is set by controls: 0 for no effect and ±100 for the full control effect; nearly all actives have a fitted effect of over 50% in size; luciferase read-out
MARV entry inh: Marburg virus entry inhibition. Marburg virus pseudotyped entry inhibition, cell reporter; control for the full effect not named in the record; about a third of the inactives were read at about 46 µM. 300,000 tested, 1.8% active. Potency, µM (doses to about 37.8 µM), for the others: at the top dose activity change, negative = inhibition, actives largely listed as inhibitors; active = well fitted inhibition curve with a large enough effect; inconclusive = small, poorly fitted or top-dose-only effect, or effect the other way; inactive = flat fitted curve, though single readings scatter; tested in HEK293 cells; about a fifth of its hits are not listed in these tables; note: % is set by controls: 0 for no effect and ±100 for the full control effect; luciferase read-out
The depositor's hits bear a star; ? = inconclusive; nt = no result given; & = joins results of further samples; [ ] = remark or other dose. Unless noted, calls come from the whole dose curve; as a rule, active = well fitted curve in the direction sought with a large enough effect; inconclusive = small, poorly fitted or top-dose-only effect, or another doubt; inactive = no such curve, though single readings can be large; an effect the other way counts as inactive or inconclusive. Potency is the fitted concentration of half-maximal effect.

SMILES	Cruzain inh noDet	NS1 inh	StopGo reporter	RE007 growth inh	SARS PLP yeast	Cruzain inh Det	Lassa entry inh	MARV entry inh
CCCCc1c(O)nc2n(c1=O)CCS2	-4%	?	-14%	-3%	4%	3.0%	6%	-8%
COCCNC(=O)CCc1nnc(C2(c3ccc(Cl)cc3)CCC2)o1	nt	0%	5%	5%	0%	nt	nt	nt
O=C1OC(=O)c2c(Br)c(Br)c(Br)c(Br)c21	-2%	nt	0%	1%	-10%	-2.8%	nt	0%
CCOC(=O)C1CCCN(c2c(NCCN(C)Cc3ccccc3)c(=O)c2=O)C1 (stereo not given)	1%	-4%	3%	6%	0%	-1.1%	nt	nt
O=C(CN1CCCC1)Nc1ccc(F)c(Cl)c1	nt	7%	1%	-1%	0%	nt	22%[46.1 µM]	26%[46.1 µM]
CCOC(=O)c1cc(-c2csc(COc3ccc(Cl)cc3)n2)on1	nt	-4%	-3%	6%	0%	nt	-5%	16%[46.1 µM]
CCCCCn1c(=O)c2ccccc2n2c(=S)[nH]nc12	nt	-3%	-17%	-21%	10%	nt	nt	nt
c1csc(-c2nc3ccccc3s2)c1	nt	-2%	57%[activator]	?	-1%	nt	?	?
COCCCNC(=O)c1cc2c(=O)n3cccc(C)c3nc2n(C(C)C)c1=N	?	0%	-3%	11%	-3%	25µM*	12%	-14%
COc1cc2c(c(O)c1OC)C(=O)C(OC)CCC2 (stereo not given)	6%	6%	-18%	-1%	2%	1.4%	10%	2%
Cc1cccc2cc(CN(CC3CCCO3)C(=O)c3ccncc3)c(=O)[nH]c12 (stereo not given)	2%	0%	13%	-3%	-1%	4.8%	17%	30%
O=C(NC1CCCCCC1)C(=S)N1CCCC1	nt	0%	-15%	?	0%	nt	20%[46.1 µM]	11%[46.1 µM]
Cc1c(C(=O)NCC2CCCO2)sc2nc(-c3ccccc3)cn12 (stereo not given)	-17%	-57%	12%	4%	15%	-9.4%	nt	nt
O=C(OCC#CCSc1nnc(-c2cccc3ccccc23)o1)c1ccco1	-17%	16%	6%	-6%	-4%&-4%	-25%	0%	-9%
COc1ccccc1CNC(=O)C1CCN(S(=O)(=O)c2cn(C)cn2)CC1	-1%	nt	5%	nt	nt	-1.2%	8%[46.1 µM]	nt
COc1cccc(C2CC(C(F)(F)F)n3nc(C(=O)NCc4cccnc4)cc3N2)c1 (stereo not given)	15%	-18%	nt	-8%	1%	1.8%	6%	-7%
CCC1Oc2ccccc2N(CC(=O)NCc2cccs2)C1=O (stereo not given)	nt	nt	3%	-12%	-2%	nt	-13%	0%[46.1 µM]
CCc1nnc(NC(=O)Cc2cc(OC)c(OC)c(OC)c2)s1	nt	nt	-9%	2%	0%	nt	8%	24%[46.1 µM]
COc1ccccc1NC(=O)Cc1noc(CSc2cccc[n+]2[O-])n1	-1%	-72%	-6%	-1%	-3%	-0.8%	8%	4%
COc1cccc(NC(=O)Cn2c3ccccc3c3nc4n(c(=O)c32)CCS4)c1	nt	nt	-6%	1%	-3%	nt	-4%	-11%[46.1 µM]
O=C(CCS(=O)(=O)c1cccs1)Nc1ccc(C(=O)Nc2cccc(Cl)c2)cc1	-25%	nt	?	nt	nt	-11%	8%[46.1 µM]	?
COc1ccc(OC)c(NC(=O)C2=C(C)Nc3ncnn3C2c2cccs2)c1 (stereo not given)	8%	-32%	-18%	0%	-2%	-3.8%	-12%	-20%
CCN1CCN(c2csc3ccc(F)cc3c2=O)CC1	-3%	nt	45%[activator]	nt	nt	-4.8%	27%[46.1 µM]	nt
Cc1nonc1CN(C)C(=O)CC1C(=O)NCCN1Cc1c(F)cccc1Cl (stereo not given)	nt	3%	13%	-3%	-1%	nt	-11%	-1%[46.1 µM]
O=C(CCc1c[nH]c2ccccc12)NCc1cccc(Cl)c1	nt	-3%	-5%	4%	-6%	nt	-19%[46.1 µM]	15%[46.1 µM]
CCN(CC(=O)Nc1ccccc1C(F)(F)F)C(=O)c1oc2ccc(OC)cc2c1C	nt	nt	5%	-21%	2%	nt	0%	-13%[46.1 µM]
CCOC(=O)N/N=C/c1cc(OC)c(O)c(OC)c1	-2%	-8%	-12%	5%	11%	-3.9%	2%	?
CN(C)c1ccnc2sc(C(N)=O)c(N)c12	-14%	-109%	nt	0%	-4%	1.1%	6%	1%
CC(=O)Oc1ccc(/C=C2/CCc3ccccc3C2=O)cc1	nt	-53%	?	?	-5%	nt	nt	nt
CCN(CC)S(=O)(=O)c1cccc(NC(=O)COC(=O)/C=C/c2ccco2)c1	-4%	0%	-8%	-10%	4%	-7.0%	2%	-5%
COc1ccc(CNC(=O)C2CCN(S(=O)(=O)c3c(C)noc3/C=C/c3cccs3)CC2)cc1	13%	nt	-24%	nt	nt	-4.4%	25%[46.1 µM]	-24%[46.1 µM]
COCCCn1c(SCC(=O)Nc2ccc(NC(=O)c3ccco3)c(OC)c2)nc2ccccc2c1=O	?	-7%	-30%	14%	1%	-2.0%	0%	8%[46.1 µM]
Cc1cc(C(=O)N(C)CC(=O)Nc2cccc(F)c2)no1	nt	nt	-17%	3%	2%	nt	5%	-10%
Cn1c2ccc(F)cc2c2nnc(SCC(=O)Nc3cccc(O)c3)nc21	nt	-11%	12%	-6%	-4%	nt	-29%[46.1 µM]	-11%[46.1 µM]
O=C(CN1CCCc2ccccc21)NC(=O)NCc1ccccc1	nt	-33%	-24%	9%	-2%	nt	-20%[46.1 µM]	0%[46.1 µM]
CC(C)CCn1c(=O)c2sccc2n2c(CCCC(=O)N3CCN(c4ccccn4)CC3)nnc12	nt	1%	?	-3%	0%	nt	nt	nt
Cc1cc(C(=O)Cn2cc(C(F)(F)F)ccc2=O)c(C)n1-c1ccccc1	-8%	1%	5%	66%	-12%	-5.4%	?	?
c1ccc2sc(C3(N4CCCCC4)CCCCC3)cc2c1	11%&3%	-16%	-21%&-27%	nt	nt	4.6%&10%	?	7.1µM*
Cc1ccc(S(=O)(=O)NC(=O)Nn2c(C)nnc2C)cc1	5%	-6%	-16%	9%	-3%	-7.4%	3%	-5%[46.1 µM]
CSc1ccccc1OCc1cc(C(=O)NC(C)c2cnn(C)c2)no1 (stereo not given)	nt	-4%	10%	0%	1%	nt	7%	17%
CC(=O)c1cccc(NC(=O)CSc2ccc(-c3sc(C)nc3C)nn2)c1	nt	-7%	?	-14%	-3%	nt	?	?
COc1cc2c(cc1OC)C(c1cc3ccccc3oc1=O)=NC(C)(C)C2	?	-5%	-12%	-3%	-1%	-11%	-7%	-3%
Clc1ccc(C=Cc2ccccn2)cc1	nt	nt	6%	-28%	nt	nt	-26%[46.1 µM]	?
CCOc1cccc(CN2CCC(N3CCC(C(=O)NCC4CCCO4)CC3)CC2)c1 (stereo not given)	nt	4%	-11%	-4%	?	nt	2%[46.1 µM]	-12%[46.1 µM]
CN(C)C(=S)Nc1cccc(C(F)(F)F)c1	nt	3%	-1%	-9%	0%	nt	nt	nt
Cc1nc2cc(Cl)ccc2n1CCO	-3%	0%	-10%	7%	0%	1.6%	?	-18%
COc1ccc(-c2noc(C3CCCN(C(=O)c4cccc(C)c4)C3)n2)cc1 (stereo not given)	nt	-24%	?	-18%	-6%	nt	nt	nt
CN(C)C(CNC(=O)Nc1cccc(Cl)c1)c1cccnc1 (stereo not given)	-2%	-8%	-8%	19%	1%	0.3%	1%	0%
C=CCNC(=O)/C(=C/c1cccc([N+](=O)[O-])c1)NC(=O)c1ccccc1	nt	nt	-6%	393%	1%	nt	?	?
O=C(Nc1ncc(Cc2ccccc2Cl)s1)c1ccc(-c2cccc([N+](=O)[O-])c2)o1	6.3µM*	7%	?	20%	8%	-1.3%	nt	6%
Cc1nc2nc(SCC(=O)NC(C)c3ccccc3)nn2c(C)c1Cc1c(F)cccc1Cl (stereo not given)	?	nt	-19%	nt	nt	-8.6%	?	0%[46.1 µM]
CCOC(=O)C1(C(F)(F)F)N=C(C(F)(F)F)Nc2cc(C)c(C)cc21 (stereo not given)	11%	-13%	-22%	4%	-1%	-8.6%	-5%	?
O=C(CN1CCCCC1)N1CCN(c2ccccc2)CC1	nt	4%	-2%	4%	-2%	nt	1%[46.1 µM]	?
C/C(N)=C(/C#N)C(=O)CSc1nnc(NC(C)C)s1	-13%	6%	nt	-20%	-4%	-7.6%	?	?
Fc1ccc2c(c1)C(c1cccnc1)=NNC(c1cccs1)=N2	-4%	-10%	-23%	15%	13%	-2.6%	-22%	-8%
Cc1cccc(CCNC(=O)C2CCC(=O)N(Cc3ccccc3F)C2)n1 (stereo not given)	nt	nt	-5%	1%	nt	nt	2%	-5%
O=c1c2ccccc2ncn1-c1ccccc1C(F)(F)F	nt	5%	5%	13%	0%	nt	nt	nt
Cn1c(CNC(=O)CNC(=O)Cc2ccccc2)cc(=O)n(C)c1=O	nt	22%	5%	-7%	2%	nt	nt	nt
COC(=O)c1ccc(C2c3c(n[nH]c3C)C(=O)N2c2ccc(C)cc2)cc1 (stereo not given)	-5%	2%	1%	23%	6%	-2.7%	nt	nt
Cc1c(C(=O)O)sc2nc(C)n(C)c(=O)c12	9%	13%	nt	29%	2%	2.4%	?	-3%
Later entries:
SMILES	Cruzain inh noDet	NS1 inh	StopGo reporter	RE007 growth inh	SARS PLP yeast	Cruzain inh Det	Lassa entry inh	MARV entry inh
CC(Sc1nnc(-c2ccccc2Br)o1)C(=O)N1CCOCC1 (stereo not given)	nt	-4%	7%	-6%	0%	nt	6%[46.1 µM]	2%[46.1 µM]
COc1cc(NC(=O)COC(=O)Cc2ccc(-c3ccccc3)cc2)cc(OC)c1	21%	9%	16%	6%	0%	7.8%	?	?
Cc1ccc(-c2ccc(=O)n(Cc3ccc(F)cc3)n2)cc1	2%	-1%	-23%&6%	12%	-2%	-6.3%	-2%[46.1 µM]	0%&0%[46.1 µM]
O=C(COc1ccc(Cl)cc1)NCCCNC(=O)c1ccncc1	nt	-6%	-6%	1%	0%	nt	2%	2%[46.1 µM]
COc1ccc(C2=Nn3c(nc4sc(C(=O)Nc5cccc(C)c5)c(C)c4c3=O)SC2)cc1	20%	nt	-23%	nt	nt	-1.2%	9%[46.1 µM]	-13%[46.1 µM]
CCc1cc(SC#N)cc(CC)c1NC(=O)CCl	-4%	?	25µM*	6%	?	-5.6%	?	-18%
